# Screens: PubChem, ICCB-Longwood Screening Facility, Harvard Medical School
# RVFV N-RNA FP = inhibitors of Rift Valley Fever Virus nucleocapsid-RNA interaction; P21700; RVFV N-RNA binding, fluorescence polarization; stronger effect = lower value; % bound, % (concentration not given with the values); actives 0.1% (n = 20,000); AID 651828;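 active = between 0 and 58% in either replicate with normal brightness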;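 note: 100 nL library stock added to about 12 µL; 100% = protein and probe without compound and 0% = probe alone; numbers are from one replicate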
# Target sequence (P21700 whole entry, looked up): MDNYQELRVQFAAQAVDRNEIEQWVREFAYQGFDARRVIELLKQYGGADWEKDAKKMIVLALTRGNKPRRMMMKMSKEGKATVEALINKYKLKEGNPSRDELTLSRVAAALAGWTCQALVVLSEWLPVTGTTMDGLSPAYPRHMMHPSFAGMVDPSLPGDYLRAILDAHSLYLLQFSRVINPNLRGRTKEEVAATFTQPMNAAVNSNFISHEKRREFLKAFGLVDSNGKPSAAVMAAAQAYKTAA
# An asterisk follows results filed as active; & = joins results of further samples.
No.	mol	RVFV N-RNA FP
1	CC(N=C(NC#N)Nc1ccncc1)C(C)(C)C (configuration not stated)	100&102&98
2	CC(=O)NC1=NN(c2ccccc2)C(=O)C1	96
3	COc1ncnc2c1sc1nc3c(cc12)COC(C)(C)C3	93
4	CCC(=O)Nc1nnc(SCc2cc(=O)c(OC(=O)c3cccs3)co2)s1	90
5	Cc1ccc2[nH]c(=O)c(N3CCOCC3)c(-c3ccccc3)c2c1	94
6	Cc1cc(=O)oc2cc(NC(=S)NCc3cc(C)n(C)n3)ccc12	91
7	O=C(Oc1ccccc1Cl)C1COc2ccccc2O1 (configuration not stated)	99
8	COc1ccc(OC)c2sc(N3CCN(C(=O)C(C)C)CC3)nc12	95
9	C=CCn1c(=O)sc2cc(Br)ccc21	104
10	COC(=O)c1sccc1-c1ccc(C2C3=C(CCCC3=O)NC3=C2C(=O)CCC3)o1	98
11	COC(=O)c1sccc1NC(=O)c1ccc(Cl)s1	97
12	COc1cccc(OC)c1C(=O)ON=C1C=CC(=O)C=C1	84
13	C=CCN1C(=O)C(O)(c2c[nH]c3ccccc23)c2cc(Cl)ccc21 (configuration not stated)	102
14	Cc1c(Cl)cccc1NC(=O)CCn1cnc2ccccc2c1=O	82
15	O=c1oc2c3ccccc3oc(=O)c2c2ccccc12	90
16	Cc1ccccc1NS(=O)(=O)c1ccc(N2CCCC2=O)cc1	96
17	COC(=O)c1cc(S(=O)(=O)N2CCC(Cc3ccccc3)CC2)oc1C	97
18	CCOCCC(=O)Nc1ccc(OC)cc1	94
19	CCC(CC)C(=O)NC12CC3CC(CC(C3)C1)C2	98
20	Clc1nccc2c1ccc1ccccc12	98
21	CCCCCCCc1c(C)[nH][nH]c1=O	100
22	O=C(NCCN1CCOCC1)C1(c2cccs2)CCOCC1	93
23	Cc1c(OC(C)C)ccc2c3c(c(=O)oc12)CCC3	107
24	CCOCCCNc1nc2ccccc2nc1NS(=O)(=O)c1cccc2nsnc12	100
25	O=c1[nH]c2ccccc2n1C1CCCCC1	93
26	OCCNC1CCCc2c1[nH]c1ccc(Br)cc21 (configuration not stated)	103
27	CC(C)[C@H](N)C(=O)OCC(CO)OCn1cnc2c(=O)[nH]c(N)nc21 (some centres not stated)	85
28	CCSc1nc(O)cc(=O)n1CC	94
29	NCC(CP(=O)(O)O)c1ccc(Cl)cc1 (configuration not stated)	106
30	Cc1ccc2ccc(S(=O)(=O)N3CCCCC3)cc2c1	88
31	O=S(=O)(c1ccccc1)N1N=C(c2ccccc2)CC1c1ccco1 (configuration not stated)	103
32	CCC(=O)N1CCN(c2ccc(OC)cc2)CC1	89
33	CC1SC(=S)N(CCCC(=O)O)C1=O (configuration not stated)	89
34	CC1CN(c2ncc(C(=O)OCc3ccc(Cl)cc3)c(C(F)(F)F)n2)CC(C)O1 (configuration not stated)	96
35	COc1ccccc1N1CCN(CCN(C(=O)c2ccc(F)cc2)c2ccccn2)CC1	94
36	CN(c1ccc(C(=O)NCCC2=CCCCC2)cc1)S(C)(=O)=O	102
37	CC(C)OP(=S)(OC(C)C)OC(C)C	98
38	CC1CC(=O)NN=C1c1ccc(Cl)cc1 (configuration not stated)	88
39	O=C(Nc1ccc(S(=O)(=O)N2CCCCC2c2cccnc2)cc1)c1ccc(Br)o1 (configuration not stated)	88
40	COc1ccc(OCC(O)CNC(=S)Nc2ccc3c(c2)OCCO3)cc1 (configuration not stated)	91
41	O=c1[nH]c2sc3c(c2c2nncn12)CCCC3	95
42	NC(=O)C1CCN(C(=O)NC2CCCCC2)CC1	102
43	CC1CCN(C(=O)COc2ccc3c4c(c(=O)oc3c2)CCCCC4)CC1	97
44	O=C(CCN1CCCCC1)N/N=C/c1cccnc1	88
45	CC1CN(S(=O)(=O)c2ccc(NC(=O)C(C)Oc3ccc(F)cc3)cc2)CC(C)O1 (configuration not stated)	86
46	COC(=O)COc1ccc(C)cc1C(C)(C)C	92
47	C(=N\c1nc2ccccc2[nH]1)/c1ccc2c(c1)OCO2	95
48	CCCN1CCC(Nc2ccc3c(c2)CCC3)CC1	84
49	CCCn1c(Nc2ccccc2)nc2ccccc21	98
50	COc1ccc(NC(=S)NCCCO)c(OC)c1	96
51	Cn1c(=O)c2c(nc(N3CCN(c4ccccc4)CC3)n2CCSc2nnnn2-c2ccccc2)n(C)c1=O	93
52	CO[C@@]1(NC(=O)CSCC#N)C(=O)N2C(C(=O)O)=C(CSc3nnnn3C)CS[C@@H]21	92
53	CN(C)c1nc(SCC#N)nc(N(C)C)n1	96
54	CC(C)c1nc(CN(C)C(=O)N[C@H](C(=O)N[C@@H](Cc2ccccc2)C[C@H](O)[C@H](Cc2ccccc2)NC(=O)OCc2cncs2)C(C)C)cs1	98
55	O=C(Nc1ccccc1Cl)c1ccc(-n2cnnc2)cc1Cl	97
56	Cn1ncc(Br)c1-c1cccc(NC(=O)COCC(=O)O)c1	94
57	Cc1ccc(NC(=O)c2ccco2)c(NC(=O)COc2ccc(I)cc2)c1	99
58	Cc1cc(C)c(S(=O)(=O)NCCc2ccncc2)c(C)c1	115
59	CCOC(=O)c1cc(/C(C)=N/NS(=O)(=O)c2ccc(F)c(Cl)c2)on1	93
60	NC(CCCCCP(=O)(O)O)C(=O)O (configuration not stated)	106

# Eight structures out of the list, arranged by SMILES length, smallest number first.
No.	mol	RVFV N-RNA FP
60	NC(CCCCCP(=O)(O)O)C(=O)O (configuration not stated)	106
49	CCCn1c(Nc2ccccc2)nc2ccccc21	98
46	COC(=O)COc1ccc(C)cc1C(C)(C)C	92
58	Cc1cc(C)c(S(=O)(=O)NCCc2ccncc2)c(C)c1	115
47	C(=N\c1nc2ccccc2[nH]1)/c1ccc2c(c1)OCO2	95
57	Cc1ccc(NC(=O)c2ccco2)c(NC(=O)COc2ccc(I)cc2)c1	99
52	CO[C@@]1(NC(=O)CSCC#N)C(=O)N2C(C(=O)O)=C(CSc3nnnn3C)CS[C@@H]21	92
54	CC(C)c1nc(CN(C)C(=O)N[C@H](C(=O)N[C@@H](Cc2ccccc2)C[C@H](O)[C@H](Cc2ccccc2)NC(=O)OCc2cncs2)C(C)C)cs1	98

# Going on with the list.
No.	mol	RVFV N-RNA FP
61	CCN(C(=O)c1cccc(F)c1)C1CCS(=O)(=O)C1 (configuration not stated)	97
62	Cc1cc2nnc(C#N)c(C)n2n1	101
63	COc1cccc2c1[C@@H]1CN(CCCCn3c(=O)[nH]c4c(sc5ncc(-c6ccccc6)nc54)c3=O)C[C@@H]1CO2	92
64	CC1CCc2ccccc2N1 (configuration not stated)	96
65	O=c1[nH]c(SCc2ccccc2)nc2[nH]ncc12	99
66	COC(=O)c1ccc(COc2ccc3c(oc(=O)c4cc(OC)ccc43)c2C)o1	87
67	CCSc1nc(-c2ccccc2)c(C#N)c(=O)[nH]1	94
68	CCn1cc(SCC(=O)Nc2cccc(OC)c2)c2ccccc21	93
69	CSc1cccc(N/C(=N\S(=O)(=O)c2ccccc2)NN)c1	98
70	CCOC(=O)CN1C(=O)C(O)(c2c[nH]c3ccccc23)c2ccccc21 (configuration not stated)	105
71	CCCCC(CC)COC(=O)CC(C(=O)OCC(CC)CCCC)S(=O)(=O)O (configuration not stated)	95
72	CCn1ccnc1CC1COc2ccccc2O1 (configuration not stated)	93
73	Cc1ccc(NC(=O)NC2CCN(C)CC2)cc1Cl	87
74	Cc1ccc(C(CNC(=O)C(C)C)N2CCN(C)CC2)cc1 (configuration not stated)	90
75	CC(Cc1ccccc1)(NC(=O)CN)c1ccccc1 (configuration not stated)	96
76	O=C1C=CC(=O)C=C1	98
77	NC(=O)c1cccc(N)c1	94
78	O=c1c2nnn(Cc3ccccc3)c2ncn1C/C=C/c1ccccc1	100
79	CC(=O)Nc1sccc1C(N)=O	94
80	O=C(O)c1ccccc1C(=O)Nc1ccc(OC(F)F)cc1	96
81	COc1ccc(S(=O)(=O)N2CCN(C(=O)c3cccs3)CC2)cc1OC	100
82	Cc1cc(N2CCOCC2)ccc1/C=c1\sc2nc3ccccc3n2c1=O	100
83	COC(=O)c1ccc(OCC(O)Cn2cc(/C=N/O)c3ccccc32)cc1 (configuration not stated)	97
84	CCOC(=O)N1CCN(C(=O)c2cc(I)ccc2NC(=O)c2ccco2)CC1	90
85	CC1CC(=O)NN=C1c1ccc2c(c1)nnn2O (configuration not stated)	101
86	CNS(=O)(=O)c1ccc(SC)cc1	94
87	O=C(CSC1=NS(=O)(=O)c2cc(F)ccc2N1)NC1CCCC1	92
88	CCCn1cnc2c(sc3nc4c(cc32)CSC(C)(C)C4)c1=O	95
89	N[C@@H](Cn1ccc(=O)c(O)c1)C(=O)O	95
90	CC(C)(O)C(=O)/C=C/c1ccc(Cl)cc1	100
91	CC12CC(NC(=O)N1c1ccccc1)c1ccccc1O2 (configuration not stated)	94
92	CCC(C(=O)Nc1ccc(OC)c(OC)c1)c1ccccc1 (configuration not stated)	96
93	CCn1cnc2nc(N)[nH]c(=O)c21	95
94	CCN(CC)C(=O)CN1C(=O)C2(OCC(C)(c3ccccc3)CO2)c2ccccc21 (configuration not stated)	109
95	CCn1c(=NC(=O)C2CC2)sc2cc(Br)ccc21	95
96	N#C/C(=C\c1cccs1)Sc1nc2ccccc2s1	100
97	CCN1CCN(c2cc3c(cc2F)c(=O)c(C(=O)O)cn3C2CC2)CC1	98&98
98	COc1ccc(Cn2[nH]nnc2=S)cc1	87
99	NCCC1CCCC(CCN)N1 (configuration not stated)	92
100	O=S(=O)(c1cccc(NC(=S)N2CCN(c3ccc(F)cc3)CC2)c1)C(F)F	104
101	O=C(/N=C1/SCCN1CC(=O)c1ccccc1)Nc1ccccc1	88
102	CCC(c1ccccc1)c1nnc(NC(=O)OC)s1 (configuration not stated)	98
103	Cc1c(CN2CC3(C)CC2CC(C)(C)C3)c(=O)n(-c2ccccc2)n1C (configuration not stated)	93
104	Cn1[nH]c(=O)c2cc(Cl)c(Cl)cc2c1=O	91
105	C=C(C)C1CC=C(CN(C)C2CCN(C)CC2)CC1 (configuration not stated)	94

# Fetched by structure from the entries so far, three records:
No.	mol	RVFV N-RNA FP
64	CC1CCc2ccccc2N1 (configuration not stated)	96
45	CC1CN(S(=O)(=O)c2ccc(NC(=O)C(C)Oc3ccc(F)cc3)cc2)CC(C)O1 (configuration not stated)	86
50	COc1ccc(NC(=S)NCCCO)c(OC)c1	96

# (continued)
No.	mol	RVFV N-RNA FP
106	CC1CCCCN1C(=O)c1cc2nc3c(c(C(F)(F)F)n2n1)CCc1ccccc1-3 (configuration not stated)	91
107	Cc1cc(C)cc(N2C(=O)CC(N(C(=O)c3ccco3)c3cc(C)cc(C)c3)C2=O)c1 (configuration not stated)	94
108	CCOC(=O)c1sc(S(C)=O)c2c1CCCC2=O (configuration not stated)	97
109	NCc1cccnc1	108
110	CCC(=O)OCn1nnc2ccccc2c1=O	92
111	Cn1ccc2c(OCC(=O)c3ccccc3)cccc2c1=O	92
112	CC1CC(C)(C)N(C=O)c2ccccc21 (configuration not stated)	90
113	O=C(CSCc1ccccc1)Nc1cc(=O)[nH]c(=O)[nH]1	99
114	CC(C)(C)c1ccc(-c2nnco2)cc1	94
115	Cc1cc(C)c2oc(-c3cc(N)cc(C)c3O)nc2c1	103
116	C/C=C\C(=O)Nc1cc(-c2cn3cccnc3n2)ccc1C	99
117	CN1/C(=C/C2CC(=O)NC2=O)C(C)(C)c2ccccc21 (configuration not stated)	100
118	CC1CCc2cc(F)ccc2N1C(=O)CCN1C(=O)c2ccccc2S1(=O)=O (configuration not stated)	82
119	CCN(CC)C(=O)C1CCCN(Cc2cc(Br)c(O)c(OC)c2)C1 (configuration not stated)	86
120	CCNC(=S)Nc1ccc(C)cc1	93

# Entries shown so far that contain a CF3 group:
No.	mol	RVFV N-RNA FP
34	CC1CN(c2ncc(C(=O)OCc3ccc(Cl)cc3)c(C(F)(F)F)n2)CC(C)O1 (configuration not stated)	96
106	CC1CCCCN1C(=O)c1cc2nc3c(c(C(F)(F)F)n2n1)CCc1ccccc1-3 (configuration not stated)	91

# Other results follow.
No.	mol	RVFV N-RNA FP
121	CCC(=O)NCC(c1ccco1)N1CCc2ccccc21 (configuration not stated)	95
122	CN(C)CCC(c1ccc(Br)cc1)c1ccccn1 (configuration not stated)	91
123	COCC(=O)Nc1ccccc1C(C)C	90
124	Cc1[nH]c(C)c2c(=O)n(C)ncc12	93
125	CC(=O)Nc1ccc(-n2c(N)c(C(=O)NC3CCCC3)c3nc4ccccc4nc32)cc1	94
126	O=C(/C=C/c1ccco1)CC1(O)C(=O)N(Cc2ccccc2Cl)c2ccccc21 (configuration not stated)	95
127	CCCC(Nc1ccccn1)n1nnc2ccccc21 (configuration not stated)	95
128	CCn1ccc(C(=O)Oc2ccc(C(C)C)cc2)n1	99
129	CSc1nc2ccc(S(=O)(=O)Nc3ccccc3C)cc2s1	108
130	O=C(OCC(O)CN1CCN(c2ccccc2)CC1)c1ccccc1 (configuration not stated)	89
131	CCN1CCN(C/C=C/c2ccccc2)CC1	94
132	Cc1cc(C)cc(C(=O)Nc2ccc3[nH]c(=O)[nH]c3c2)c1	90
133	Cc1ccc(OCc2nnc(SCc3cccc(C#N)c3)n2N)cc1C	96
134	O=C(Nc1ccccc1C(F)(F)F)c1ccco1	96
135	O=C(O)/C=C/C(=O)Nc1ccc(C(F)(F)F)cc1	100
136	CCN1CCN(Cc2ccccc2Cl)CC1	95
137	CCOC(=O)c1c(/C=C/N(C)C)oc2ccc(O)cc12	65
138	FC(F)(F)c1cccc(NCCNc2nccc(C(F)(F)F)n2)n1	93
139	COc1cc2c(CCNC(C)=O)c[nH]c2cc1O	89
140	COc1ccc2c(c1OC)C(=O)OC2Nc1ncn[nH]1 (configuration not stated)	94
141	COC(=O)COc1coc(CN2CCN(c3cccc(Cl)c3)CC2)cc1=O	91
142	N#Cc1cc2c(nc1SCC(=O)Nc1ccc(Cl)cc1)C1CCN2CC1	99
143	COc1cc(C2C(C(=O)c3cc4cccc(OC)c4o3)=C(O)C(=O)N2c2nnc(C)s2)cc(Br)c1O (configuration not stated)	92
144	Nc1nc(N)c2nc(CNc3ccc(C(=O)NC(CCC(=O)O)C(=O)O)cc3)cnc2n1 (configuration not stated)	94
145	CCCn1[nH]cc(SC)c(=O)c1=O	104
146	CC(=O)NCCc1cc2cc(C)c(C)cc2[nH]c1=O	94
147	Oc1cnn(-c2ccccc2)c1	96
148	O=C1CCCN1CC(O)CS(=O)(=O)c1ccc(Cl)cc1 (configuration not stated)	94

# This is a subset (hit frequency here may not be typical).
